HPGD inh = qHTS Assay for Inhibitors of HPGD (15-Hydroxyprostaglandin Dehydrogenase). purified HPGD, NADH fluorescence kinetic, PGE2 substrate. Potency, µM, inactives show at the top dose activity change, negative = inhibition, actives largely listed as inhibitors. 150,000 compounds, 4.3% hits. AID 894, 2007; active = well fitted inhibition curve with a large enough effect (not every such curve was filed as active); inconclusive = small, poorly fitted or top-dose-only effect, or another doubt; inactive = no such curve, though single readings can be large or run the other way;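 further: top concentration of the series not given in the record; plate controls included wells without enzyme; inactives centre near -10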
Target sequence (P15428 whole entry, looked up): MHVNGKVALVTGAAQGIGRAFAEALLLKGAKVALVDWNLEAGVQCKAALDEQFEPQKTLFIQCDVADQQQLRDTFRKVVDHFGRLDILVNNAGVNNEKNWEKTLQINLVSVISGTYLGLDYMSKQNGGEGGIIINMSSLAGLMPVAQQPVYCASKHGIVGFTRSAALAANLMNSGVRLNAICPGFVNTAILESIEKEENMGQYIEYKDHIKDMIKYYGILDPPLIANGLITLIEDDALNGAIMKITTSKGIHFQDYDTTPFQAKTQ
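NADH formation kinetics: reaction with 30 uM PGE2 and 1 mM NAD+ (final), 20 nM enzyme, Tris-HCl pH 8 with Tween 20, after 15 min compound preincubation at room temperature. Fluorescence change, last versus first of five reads.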
Starred values were filed as active, the others as inactive; ? = inconclusive; [ ] = remark or other dose. On the % scale 0 is the no-effect control and ±100 the full control effect; potency means the concentration at half of the fitted maximal effect. This is a subset; the hit share may differ from the screen's.

SMILES,HPGD inh
OCCCn1c(-c2ccccc2)nc(=S)c2c1CCCC2,-18%
O=[N+]([O-])c1cccc(Cl)c1,-7%
COC(=O)N1CCC[C@@]2(CCN(C(=O)Nc3cccc(F)c3)C2)C1,0%
COc1ccc2c(c1)C(=O)[C@@H](OC(=O)NCc1ccco1)[C@H](c1ccc(OC)c(Br)c1)O2,-14%
COC(=O)N/N=C/c1ccc(-c2cccc(Cl)c2)o1,?
Cc1c(C(=O)NC(C)CCc2ccccc2)cccc1[N+](=O)[O-] (stereo unspecified),-9%
COc1ccc(NC(=O)Cc2coc3cc(C)c(C(C)C)cc23)cc1S(=O)(=O)N1CCOCC1,-14%
COc1ccccc1NC(=O)N1CCN(c2cc(-c3ccccc3)nc3ncnn23)CC1,-8%
COc1ccc(CNC(=O)c2cc3c(C)nc4ccccc4c3o2)c(OC)c1,14%
Cc1ccc(C)c(/C(O)=C2\C(=O)C(=O)N(CCCn3ccnc3)C2c2cccnc2)c1 (stereo unspecified),-9%
Cc1cccc(-c2nnn3c2nc(NCCc2ccc(S(N)(=O)=O)cc2)c2ccccc23)c1,?
CNc1ccnc(-c2c(C)noc2C)n1,-14%
CCOC(=O)c1c(NC(=O)CN(C)C)sc(C(=O)N(CC)CC)c1C,1%
Cc1cc(Nc2nnnn2-c2ccccc2)n(-c2ccc(Cl)cc2)n1,-16%
O=C(NCc1ccccc1)c1cccc(COc2ccc3c(c2)CCC3)c1,-8%
O=C(NC(=S)Nc1ccc(N2CCCCC2)cc1)c1ccc2c(c1)OCCO2,28µM*
Cc1ccccc1C(=O)NNC(=O)c1cc(N)cc([N+](=O)[O-])c1,-15%
COc1ccc(NC(=O)N2CCCC3(CCN(C(C)=O)CC3)C2)cc1,-10%
COc1ccc2c(c1[N+](=O)[O-])CCC/C2=N/OC(=O)c1ccccc1SC,-17%
Cc1ccc(S(=O)(=O)N2CCN(C(=O)COC(=O)c3cc(C)oc3C)CC2)cc1,-10%

Molecules listed so far containing an aryl methoxy group, in the order listed:
SMILES,HPGD inh
COc1ccc2c(c1)C(=O)[C@@H](OC(=O)NCc1ccco1)[C@H](c1ccc(OC)c(Br)c1)O2,-14%
COc1ccc(NC(=O)Cc2coc3cc(C)c(C(C)C)cc23)cc1S(=O)(=O)N1CCOCC1,-14%
COc1ccccc1NC(=O)N1CCN(c2cc(-c3ccccc3)nc3ncnn23)CC1,-8%
COc1ccc(CNC(=O)c2cc3c(C)nc4ccccc4c3o2)c(OC)c1,14%
COc1ccc(NC(=O)N2CCCC3(CCN(C(C)=O)CC3)C2)cc1,-10%
COc1ccc2c(c1[N+](=O)[O-])CCC/C2=N/OC(=O)c1ccccc1SC,-17%

(list continues)
SMILES,HPGD inh
CC(=O)N(CC(=O)O)c1ccccc1,-2%
O=C(CCCn1c(=O)[nH]c2ccsc2c1=O)NCc1cccs1,?
O=c1c2ccccc2nc(SCc2cn3ccsc3n2)n1-c1ccccc1,-10%
COc1ccc(-c2csc3nc(-c4ccc(C)cc4)oc(=O)c23)cc1OC,?
CCOc1ccccc1N1Cc2ccccc2C1,-17%
CCCCOC(=O)CSc1nc(N)c(C#N)c(-c2ccc(OCC)cc2)c1C#N,-17%
COc1ccc(CCNC(=O)C2(C)CCC(=O)N2Cc2ccc3c(c2)OCO3)cc1OC (stereo unspecified),-8%
N#CC1=C(N)Nc2ncnn2C1c1ccc(F)cc1 (stereo unspecified),-9%
c1ccc(OCCOc2ncnc3sccc23)cc1,-14%
CCCn1c(=O)c(C(=O)NCc2ccncc2)c(O)c2ccccc21,-11%
COc1cc2c(cc1OC)C(C)N(C(=O)c1cc3c(s1)-c1c(C)cccc1OC3)CC2 (stereo unspecified),?
C=CCn1c(-c2ccccc2OC)n[nH]c1=S,-11%
CC(C)C(NS(=O)(=O)c1cccc2nsnc12)C(=O)N1CCc2ccccc2C1 (stereo unspecified),-3%
COc1ccccc1Cn1nnc2c(=O)[nH]c(C3CCN(C(=O)c4ccc(C)cc4)CC3)nc21,?
O=S(=O)(NCc1cc(-c2ccccc2)no1)c1ccc(Cl)cc1,5%
COc1ccc(N(C(=O)c2ccc(C)cc2)S(=O)(=O)c2cccs2)cc1,-10%
Cc1c(C(=O)Nc2ccc(Cl)cc2)c2ccccn2c1C(=O)c1ccc([N+](=O)[O-])cc1,-5%
O=[N+]([O-])c1ccc2nc(/C=C/c3ccc(Cl)cc3)[nH]c2c1,-14%
COc1ccc2cc3cc(C(=O)NCCN4CCc5ccccc5C4)oc3nc2c1,?
Cc1[nH]nc2nc(SCC(=O)NCC3CCCO3)n(-c3ccc(Br)cc3)c(=N)c12 (stereo unspecified),-13%
CCC(=O)Nc1ccc2c(c1)C(=O)c1ccccc1C2=O,-10%
COc1ccccc1OCc1ccc(C(=O)NC(C)(C)C)o1,-11%
COc1ccc(NC(=O)c2ccc(-c3ccc([N+](=O)[O-])cc3)o2)cc1OC,-27%
C=CCn1c(=O)c2ccccc2n2c(SCC(=O)N3CCCc4ccccc43)nnc12,-9%
c1ccn2c(SCc3cn4ccsc4n3)nnc2c1,-7%
CC(=O)Nc1ccc2c(c1)C(=O)N(C1CCCCC1)C2=O,?
CC(C)CC(=O)Nc1ccccc1N1CCN(C(=O)c2ccccc2)CC1,-6%
Cc1cc(C)nc(NN=C2CCCC2)n1,-4%
CCc1cc(C(c2ccc(F)cc2)N2CCOCC2)c(NC(=O)c2ccccc2)s1 (stereo unspecified),-28%
O=C1N(c2cccc3ccccc23)C(c2ccccc2)N2CCCN12 (stereo unspecified),-4%
CC(=O)Oc1ccc(Cl)cc1/C=C/c1ccc2ccccc2n1,?
Cc1ccc(C(=O)Nc2cccc(-c3cnc4ccccc4n3)c2)cc1,-6%
O=S(=O)(NCc1ccccn1)c1ccc(F)cc1,-7%
O=C1CSC2(C(=O)N3CCCc4cccc2c43)N1c1cccc(C(F)(F)F)c1 (stereo unspecified),-4%
CCCCn1c(=NC(=O)c2cccnc2)c(C(=O)OCC)cc2c(=O)n3ccccc3nc21,?
CCCCOc1ccc(/C(O)=C2/C(=O)C(=O)N(CCN(C)C)C2c2ccc(O)c(OC)c2)cc1 (stereo unspecified),-15%
Cc1cccc(CN2CCN(CC(=O)N3CCCC3)C2=O)c1,2%
C=CCN1C(=O)CSC1=Nc1ccc(O)cc1,-4%
Oc1ccc2c(c1)C1CCCC1(N1CCOCC1)O2 (stereo unspecified),?
CCC(=O)N1CCc2cc(S(=O)(=O)NCCC(=O)Nc3cc(C)cc(C)c3)ccc21,-12%
Cc1cc(C(=O)COC(=O)c2ccc(N)c([N+](=O)[O-])c2)c(C)n1-c1ccc2c(c1)OCO2,-1%
O=C(NCCc1ccccc1)C1CCN(S(=O)(=O)c2ccc(-c3nn[nH]n3)cc2)CC1,-14%
Cc1ccc2c(CC(=O)OCC(=O)Nc3ccc(Cl)cn3)coc2c1,?
COc1ccc(S(=O)(=O)N=C2C=C(C)C(=O)C(C)=C2)cc1,-18%
Cn1c(CNc2ccccc2)cc(=O)n(C)c1=O,-4%
N#Cc1c(SCC(=O)O)nc(N2CCCCC2)c2c1CCCC2,-2%
O=C(NC1(C(F)(F)F)NC(=O)N(C2CCCC2)C1=O)C1CC1 (stereo unspecified),-12%
CCC(NC(=O)Cn1cnc2c(=O)n(C)c(=O)n(C)c21)c1ccccc1 (stereo unspecified),-21%
CCn1c(=O)c(C(=O)NCCc2ccccc2)c(O)c2ccccc21,-9%
O=C(c1cc2c(ccc3ccccc32)o1)N1CCN(c2ncc(C(F)(F)F)cc2Cl)CC1,-11%
CCn1c(SCC(=O)NC2CCCc3ccccc32)nnc1-c1ccncc1 (stereo unspecified),-10%
CCOc1ccc(-n2c(SCC(=O)Nc3ccccc3C)n[nH]c2=O)cc1,7%
COc1ccc(C)cc1N(C(=O)c1cccc(F)c1)c1nc2ccccc2s1,-25%
CCc1nccn1S(=O)(=O)c1ccc2ccc(C)cc2c1,-18%
O=c1c2ccccc2nc2ccc(N3CCOCC3)nn12,-7%
COc1ccc(C2CC(c3cccs3)=NN2c2ccc(C=O)cc2)cc1 (stereo unspecified),?
Oc1c(Cl)cc(Cl)c2cccnc12,-20%
C=CCNC(N)=S,-4%
COc1ccc(OC)c(-c2cc(C(=O)Nc3cc(C)on3)no2)c1,?
Cc1sc2c(c1C)c(=O)n(-c1ccccc1)c1nnc(C)n21,-6%

Next section
SMILES,HPGD inh
Cc1nc(NC(=O)COC(=O)CCC(=O)c2cccs2)c(Cl)cc1Cl,-10%
O=C(CCN1CCN(Cc2ccccc2)CC1)Nc1cccc(Cl)c1,1%
CN1C(=O)C2(Nc3ccccc3-c3nc4ccccc4n32)c2ccccc21 (stereo unspecified),-17%
O=C(NCc1ccco1)C(Cc1ccccc1)N1C(=O)C2C3C=CC(C3)C2C1=O (stereo unspecified),-8%
CCOc1ccc(S(=O)(=O)NCc2ccco2)c2ccccc12,?
O=C(O)c1c2c(nc3ccc(S(=O)(=O)N4CCC(C(=O)N5CCCCC5)CC4)cc13)CCCC2,-10%
CN(c1cccc(Cl)c1)S(=O)(=O)c1cccc(C(=O)Nc2nc3ccccc3[nH]2)c1,-29%
CNC(=O)CN(c1cccc(Br)c1)S(C)(=O)=O,-18%
O=C(CCc1ccccc1)Nc1c(F)c(F)c(F)c(F)c1F,-15%
O=C(CSCC(=O)Nc1nccs1)Nc1ccccc1,-14%
C=CCOc1ccc(C2/C(=C(\O)c3ccc(F)cc3)C(=O)C(=O)N2CCCN(C)C)cc1 (stereo unspecified),-13%
CC(NC(=O)Nc1nccs1)(C(F)(F)F)C(F)(F)F,-9%
CCOC(=O)/C=C/CCCC=O,-6%
N/C(=N\OC(=O)CCC1CCCCC1)c1cccnc1,-2%
O=C(OCc1ccc(Cl)cc1Cl)c1cccnc1Cl,-26%
CC(C)CCOc1ccc(C(=O)NCCC(=O)N2CCOCC2)cc1,-11%
Cc1ccc2ccccc2[n+]1CCCS(=O)(=O)[O-],?
CCC(=O)N1CCN(c2ccccc2NC(=O)COc2cc(C)ccc2C(C)C)CC1,6%
CN1C[C@@H]2C(c3ccc(C(F)(F)F)cc3)C3(c4cccnc4)CC2(C3)[C@H]1c1ccccc1 (stereo partly specified),-12%
Clc1cc(Cl)c(OCc2nc(-c3ccccn3)no2)cc1Cl,-5%
COC(=O)c1cc(=O)n(Cc2cccs2)c(=NCc2cccs2)s1,-15%
C=CCOc1ccccc1C1NC(=O)NC(C)=C1C(=O)NCc1ccccc1 (stereo unspecified),-4%
O=C(O)CCC(=O)Nc1nc(-c2ccccc2)cs1,-7%
COCCCN(C(=O)c1ccco1)c1nc(-c2cc(OC)ccc2OC)cs1,51%[activator]
CC(C)C(=O)Nc1cccc(C(=O)OCC(=O)c2ccc(Cl)cc2Cl)c1,-9%
CSc1nc(-c2ccc(Cl)cc2)nn1S(=O)(=O)c1ccc(Cl)cc1,-8%
COc1ccc(-c2ccc(-c3noc(C)n3)c(OC)n2)cc1,?
CCOC(=O)C(NC(=O)Nc1cccc(C)n1)(OCC(F)(F)F)C(F)(F)F (stereo unspecified),-10%
CC1C(C(=O)Nc2ccccc2)CCCC1(C)C(=O)O (stereo unspecified),-4%
CNC(=O)CC1C(=O)N(Cc2ccccc2)C(=S)N1NC(=O)c1cccc(F)c1 (stereo unspecified),-21%
CN1CCN(C(=O)CN(c2cccc(Cl)c2)S(=O)(=O)c2ccccc2)CC1,-1%
CCC(=O)Nc1ccccc1C(=O)NC1CCCCC1,1%
COc1ccc(COc2cc(-c3cccc(OC)c3)nc3ccc(NC(C)=O)cc23)cc1,?
CC(C)CNC(=O)NC1C(NC(=O)NCC(C)C)N(C)C(=O)N1C (stereo unspecified),-9%
CSc1ccc(-c2nnn(CC(=O)NCc3ccccc3)n2)cc1,-16%
CC1Cc2cc(/C(O)=C3/C(=O)C(=O)N(CCCn4ccnc4)C3c3cccnc3)ccc2O1 (stereo unspecified),-13%
Cc1ccc(NC(=O)CSc2nc(NS(=O)(=O)c3ccc(C)cc3)cc(=O)[nH]2)cc1,-2%
CC(C)CN(CC(C)C)S(=O)(=O)N1CCC(C(=O)NCCc2ccc(Cl)cc2)CC1,-9%
Cc1cc(C)n(Cc2nc3ccccc3n2C)n1,-19%
Cc1cc(Cl)c(S(=O)(=O)NCc2ccncc2)cc1OCC(N)=O,-4%
CC(C)CNc1cc(Cl)c(S(=O)(=O)NCC(C)C)cc1C(=O)O,-3%
Cc1ccc(S(=O)(=O)N(C)CCCC(=O)N2CCN(C=O)CC2)cc1,5%
CCOC(=O)Cn1nnc(-c2ccccc2)n1,-13%

Some of these compounds in order of their number in HPGD inh, smallest number first:
| canonical_smiles | HPGD inh |
| --- | --- |
| CNC(=O)CC1C(=O)N(Cc2ccccc2)C(=S)N1NC(=O)c1cccc(F)c1 (stereo unspecified) | -21% |
| COC(=O)c1cc(=O)n(Cc2cccs2)c(=NCc2cccs2)s1 | -15% |
| Cc1cc(Cl)c(S(=O)(=O)NCc2ccncc2)cc1OCC(N)=O | -4% |
| CCC(=O)Nc1ccccc1C(=O)NC1CCCCC1 | 1% |

Records above that bear a hit mark in HPGD inh.
SMILES,HPGD inh
O=C(NC(=S)Nc1ccc(N2CCCCC2)cc1)c1ccc2c(c1)OCCO2,28µM*

High-throughput results from PubChem.
